Compound activity: PubChem BioAssay, National Center for Advancing Translational Sciences (NCATS)
Sfp inh: inhibitors of Bacillus subtilis Sfp phosphopantetheinyl transferase; Biochemical Sfp PPTase activity, qHTS; 310,000 compounds, 3.5% hits; Potency, µM, for inactives: max response, negative = inhibition, most hits filed as inhibitors; active = well fitted inhibition curve with a large enough effect; inconclusive = small, poorly fitted or top-dose-only effect, or another doubt; inactive = no such curve, though single readings can be large or run the other way;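 also: the enzyme is Sfp with the accession as filed and its product quenches rhodamine fluorescence; potency is read from the fitted curve at half-maximal effect; 0% = enzyme reaction without inhibitor and -100% = no enzyme wells; top concentration of the series not given in the record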
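Compounds were incubated with enzyme (final 15 nM) for 15 min at room temperature before substrate addition started the reaction. Fluorescence at 525 nm excitation, 598 nm emission was recorded immediately and after 30 minutes.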
Menin MLL FP FL: inhibitors of human menin-MLL interaction, wild-type MLL peptide; Fluorescence polarization, fluorescein-MLL peptide displacement from menin; FP activity change, % at 61.4 µM; 290,000 tested, under 10 active; inconclusive = falling polarisation curve, or a change in total fluorescence; inactive = total fluorescence flat and polarisation flat or rising; no compound was filed as active; the % refers to the polarisation; negative = inhibition;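 also: % of control where 0% means no effect; inhibitors lower the polarisation; unlabelled MLL peptide was the positive control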
PINK1 modulator: PINK1 expression modulation | PINK1 immunofluorescence, high-content cytometry, 24 h | Potency, µM (highest dose often 76.6 µM), inactives show top-dose activation (PINK1 increase), most hits filed as activators | 410,000 compounds, 0.2% hits | AID 624263; active = well fitted activation curve with a large enough effect; inconclusive = small, poorly fitted or top-dose-only effect; inactive = flat fitted curve, though single readings scatter; cell line not stated here;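 also: potency is read from the fitted curve at half-maximal effect; % of control where 0% means no effect; nearly all actives have a fitted effect of over 65% in size; a mitochondrial uncoupler was the plate control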
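Compound titrations (5 concentrations, 24 h) on a stable cell line; DMSO and CCCP controls. Endpoint: fixed-cell PINK1 immunofluorescence with mitochondrial, cell and nuclear markers, scanned by microplate cytometer.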
TRPML1 inh: inhibitors of human TRPML1 channel; Q9GZU1; TRPML1-inducible cells, Ca2+ dye fluorescence, FDSS; hits give low values; inhibition of EC80 agonist-evoked calcium signal; activity change, negative = inhibition, % (test concentration not listed); 390,000 compounds, 0.02% hits; AID 624415; in the data active means activity change below about -50%; inconclusive means about -30% to -50%; inactive means above about -30%;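 also: stimulus is agonist 54-4 at its EC80 concentration; % is scaled to controls: 0 for no effect and ±100 for the full control effect; compound concentration not given in the record; the text of the record puts the active cut at -80%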
Target sequence (Q9GZU1 whole entry, looked up): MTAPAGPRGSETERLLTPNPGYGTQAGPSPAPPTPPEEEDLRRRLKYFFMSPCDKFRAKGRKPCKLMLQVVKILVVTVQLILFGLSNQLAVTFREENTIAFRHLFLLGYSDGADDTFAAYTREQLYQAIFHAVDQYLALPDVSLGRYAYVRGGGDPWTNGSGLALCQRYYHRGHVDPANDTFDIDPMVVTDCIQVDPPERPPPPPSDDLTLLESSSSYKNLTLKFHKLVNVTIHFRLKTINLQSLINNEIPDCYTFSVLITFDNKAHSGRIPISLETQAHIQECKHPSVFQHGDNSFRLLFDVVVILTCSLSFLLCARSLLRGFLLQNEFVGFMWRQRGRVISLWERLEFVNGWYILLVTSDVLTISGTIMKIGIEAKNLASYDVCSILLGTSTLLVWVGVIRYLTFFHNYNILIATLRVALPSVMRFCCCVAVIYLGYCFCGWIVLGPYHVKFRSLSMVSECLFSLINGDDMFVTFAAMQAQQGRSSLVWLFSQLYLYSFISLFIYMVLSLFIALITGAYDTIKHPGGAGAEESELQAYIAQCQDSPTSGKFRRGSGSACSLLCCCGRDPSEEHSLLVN
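TRPML1-DL cells, Tet-induced overnight (~16 h, 37 °C) at 1,500 cells/well, were loaded with Ca8 no-wash dye plus quencher for 45-90 min at room temperature. Compounds were pinned during FDSS kinetic reading; agonist 54-4 at EC80 (4 uM final) then added.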
ClpP mod: qHTS Assay for Activators of ClpP | ATP-dependent Clp protease proteolytic subunit (Bacillus subtilis (strain 168)), P80244 | purified B. subtilis ClpP, FRET peptide cleavage, 20 min | Potency, µM (top dose mostly 57.5 µM), inactives show at the highest dose activity change, negative = active | 340,000 compounds, 1.9% hits | AID 651965, 2013; active = well fitted falling curve with a large enough effect; inconclusive = small, poorly fitted or top-dose-only effect; inactive = no such curve, though single readings can be large or run the other way; also: potency is read from the fitted curve at half-maximal effect; the source files actives as falling curves though it sought activators and does not explain the sign; nearly all actives have a fitted effect of over 65% in size; many hits overshoot -100%
Target sequence (P80244 whole entry, looked up): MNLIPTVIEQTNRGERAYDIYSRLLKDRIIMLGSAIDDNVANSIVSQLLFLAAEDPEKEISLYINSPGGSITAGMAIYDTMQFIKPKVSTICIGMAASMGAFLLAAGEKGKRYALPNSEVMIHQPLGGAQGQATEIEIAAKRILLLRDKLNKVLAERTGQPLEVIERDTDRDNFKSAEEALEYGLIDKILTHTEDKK
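Purified B. subtilis ClpP, 10 microg/mL final in Tris/HCl pH8 with KCl, BSA, glycerol and Tween-20, cleaved an Abz/nitrotyrosine-quenched decapeptide. Fluorescence (ex 320, em 430) was read at 0 and 20 min at room temperature. Delta was normalized to 5.8 microM ADEP and DMSO/no-enzyme controls.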
TRPML1 agonist: human mucolipin-1 channel agonism | Q9GZU1 | TRPML1-expressing cells, Ca2+ dye fluorescence, FDSS; host cell line not named in the record; reference of the full effect not given here | activation, % (test concentration not listed) | 410,000 compounds, 0.12% hits | AID 624414; in the data active = activation above about 50%; inconclusive = about 30% to 50%; inactive = below about 30%; also: 0% is about no effect; the text of the record puts the active cut at 80%
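Tet-induced TRPML1-DL cells, 1,500 per well, cultured overnight, were loaded with a no-wash Ca2+ dye for 45–90 min. Calcium fluorescence was recorded on the FDSS for 110 s after compound addition, before the EC80 agonist (4 uM 54-4) was added.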
TRPV1 potentiator: potentiators of human vanilloid receptor 1 (TRPV1); potentiation, % at 8.33 µM; 320,000 compounds, 0.02% hits; Q8NER1; TRPV1-expressing cells, Fluo-8 calcium influx, capsaicin EC20 potentiation; host cell line not named in the record; control for the full effect not named in the record; active means potentiation above 80%; inconclusive means 30% to 80%; inactive means below 30%; also: 0% is about no effect
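TRPV1-expressing cells were cultured overnight at 35.5C and loaded with Fluo-8 calcium dye for 40 to 90 min at room temperature. After a 10 s baseline, compound was added and calcium influx was read kinetically for 3 min (ex 480/em 520 nm).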
An asterisk follows results filed as active; ? = inconclusive; . = not tested or not shown; [ ] = remark or other dose. The order is random; 4.4% or so of the library scored in one or more.

SMILES	Sfp inh	Menin MLL FP FL	PINK1 modulator	TRPML1 inh	ClpP mod	TRPML1 agonist	TRPV1 potentiator
CC(C)CN1Cc2ccccc2Oc2cc(Br)ccc2S1(=O)=O	.	.	0.0%	7	0.8%	-1.2	.
C=CCNC(=O)CSc1nc2sc(C)c(C)c2c(=O)[nH]1	20%	-1.5	-1.2%	-4	-1.3%	0.6	2
COc1ccccc1OCCOCCn1cnc2ccccc2c1=O	-9%	-0.6	-2.5%[38.3 µM]	3	-1.5%	0.1	?
CC1Cc2ccccc2N1C(=O)Cn1c(=O)cc(O)c2ccccc21 (centres undefined)	9%	6.5	2.3%	2	-3.8%	1.0	16
Cc1ccc2c(c1)c(N=O)c(O)n2Cc1ccc(Cl)cc1	-5%	2.6	5.3%	6	.	0.1	9
CSc1ccccc1C(=O)C1CCCN(C(=O)CCN2CCCO2)C1 (centres undefined)	-1%	-2.1	1.0%	21	.	-0.8	6
COc1ccc2[nH]cc(/C=C(/C#N)S(=O)(=O)c3ccccc3)c2c1	11%	-7.7	1.5%	15	0.1%	0.3	11
N#Cc1ccc(CN2CC[C@@]3(CCCN(C(=O)c4cc(C(F)(F)F)cc(C(F)(F)F)c4)C3)C2)cc1	18%	0.5	1.8%	.	.	.	.
Cc1ccc(-c2csc(=Nc3ccccc3)n2Cc2ccc3c(c2)OCO3)cc1	.	.	2.2%	4	-1.0%	-0.4	.
CCN(CC)CCNC(=O)c1ccc(-c2nc(CN3CCc4ccccc43)c(C)o2)cc1	.	.	10%	-19	-9.2%	0.7	.
Cc1cccc(NC(=O)CSc2cn(CC(=O)N3CCCCCC3)c3ccccc23)c1	.	.	-1.0%	25	-1.4%	1.1	.
COc1ccc2c(=O)c(C(=O)NCCc3ccc(OC)c(OC)c3)c[nH]c2c1	17%	1.8	2.7%	6	-7.8%	0.9	8
Cc1ccc(C)c(-n2c3nc(=O)n(C)c(=O)c-3cc3ccccc32)c1	-11%	-0.5	0.0%	?	4.0%	-0.7	-6
Cc1ccc(Cl)cc1NC(=O)C1CCCN(S(=O)(=O)c2c(C)noc2C)C1 (centres undefined)	-3%	1.1	0.3%	0	1.9%	0.3	-11
CC(/C=N/NC(=O)CSc1nnc(SCc2ccccc2)s1)=C\c1ccco1	?	8.4	-1.6%	20	-3.9%	1.8	11
CCCOc1c(OC)cc(Cl)cc1C1NC(=O)NC(C)=C1C(=O)NCc1ccccc1 (centres undefined)	6%	-0.9	-0.5%[38.3 µM]	8	-0.3%	-0.8	-5
CCc1ccccc1NC(=O)Nn1cnnc1	19%	.	-1.5%	16	-0.7%	0.8	17
Nc1ccc(NC(=S)Nc2ccccc2)cc1	12%	1.8	0.2%	7	1.9%	0.2	11
Cc1cccnc1C1=NOC(Cc2ccccc2)C(=O)N1Cc1ccc2c(c1)OCO2 (centres undefined)	.	.	-0.1%	.	2.8%	0.1	.
NC(=O)C1CCCN(CC(=O)N2CCN(c3ccccc3)CC2)C1 (centres undefined)	19%	-2.3	1.5%	-23	.	-0.1	6
CCN(C[C@H]1N[C@@](C)(C(=O)OC)[C@H]2C(=O)N(C)C(=O)[C@@H]12)C(=O)c1ccccc1	.	.	-1.3%	41	1.1%	2.1	.
COc1ccc(C(=O)NCCOc2ccccc2)cc1S(=O)(=O)N1CCOCC1	.	.	4.6%	-9	0.6%	1.5	5
Cc1ccc2c(c1)cc1c(=O)n(CC(=O)NCCCc3ccccc3)nc(C)n12	-2%	.	-0.3%	1	-18%	-0.5	3
CC(=O)Nc1ccc(S(=O)(=O)Nc2c(C)nn(-c3ccccc3)c2C)cc1	11%	0.6	1.0%[38.3 µM]	16	-1.3%	0.0	?
Cc1c(C(=O)Nn2cnnc2)oc2ccccc12	6%	4.2	-0.1%	-15	-0.7%	-0.3	11

A different layout for part of the listing above:
| SMILES | Sfp inh | Menin MLL FP FL | PINK1 modulator | TRPML1 inh | ClpP mod | TRPML1 agonist | TRPV1 potentiator |
| --- | --- | --- | --- | --- | --- | --- | --- |
| COc1ccc(C(=O)NCCOc2ccccc2)cc1S(=O)(=O)N1CCOCC1 | . | . | 4.6% | -9 | 0.6% | 1.5 | 5 |
| CCN(CC)CCNC(=O)c1ccc(-c2nc(CN3CCc4ccccc43)c(C)o2)cc1 | . | . | 10% | -19 | -9.2% | 0.7 | . |

No new results follow: entries from further up.
SMILES	Sfp inh	Menin MLL FP FL	PINK1 modulator	TRPML1 inh	ClpP mod	TRPML1 agonist	TRPV1 potentiator
CC(C)CN1Cc2ccccc2Oc2cc(Br)ccc2S1(=O)=O	.	.	0.0%	7	0.8%	-1.2	.
C=CCNC(=O)CSc1nc2sc(C)c(C)c2c(=O)[nH]1	20%	-1.5	-1.2%	-4	-1.3%	0.6	2
COc1ccccc1OCCOCCn1cnc2ccccc2c1=O	-9%	-0.6	-2.5%[38.3 µM]	3	-1.5%	0.1	?
CC1Cc2ccccc2N1C(=O)Cn1c(=O)cc(O)c2ccccc21 (centres undefined)	9%	6.5	2.3%	2	-3.8%	1.0	16

(further entries)
SMILES	Sfp inh	Menin MLL FP FL	PINK1 modulator	TRPML1 inh	ClpP mod	TRPML1 agonist	TRPV1 potentiator
O=[N+]([O-])c1ccc(S(=O)(=O)NCCc2ccncc2)cc1	10%	1.0	-1.2%	0	.	-0.3	4
Cc1ccc(-c2nn(CC(=O)NN3CCOCC3)c(=O)c3ccccc23)cc1	10%	-0.7	1.1%	-6	-2.3%	-0.6	6
CC(=O)Cc1nsc(Nc2ccccc2)n1	0%	-0.1	-1.0%	5	-5.1%	1.1	0
COc1ccc(NC(=O)CNC(=O)c2ccc([N+](=O)[O-])cc2)cc1	4%	14	-1.2%	25	.	0.1	12
COc1ccc(CCNC(=O)COc2ccc(N(C)S(=O)(=O)c3ccc(C)cc3)cc2)cc1	-12%	2.9	0.2%	-13	1.2%	0.5	-1
CCOC(=O)C1=C(COC(=O)c2ccc(Br)c(S(=O)(=O)N3CCOCC3)c2)NC(=O)NC1C (centres undefined)	.	.	-0.4%	-10	-2.8%	0.0	.
Cc1cc(C(=O)N/N=C/c2ccc(N(C)C)cc2)c2ccccc2n1	11%	-0.1	3.7%	9	.	-1.1	-2
COc1ccccc1NC(=O)CSC1=Nc2ccccc2C2=NC(CC(=O)NCc3ccco3)C(=O)N12 (centres undefined)	.	.	2.7%	-2	2.1%	0.0	.
CCOc1ccccc1-c1nc(C(N)=O)c2[nH]c(=O)n(-c3ccccc3)c2n1	9%	-1.7	0.0%	34	-23%	1.6	-3
COc1ccc(OCC(O)CNC2CCCC2)cc1 (centres undefined)	14%	4.1	0.9%	6	.	0.7	5
CC1CCC(N(C(=O)c2csnn2)C(C(=O)NC(C)(C)C)c2cccnc2)CC1 (centres undefined)	-3%	1.6	0.2%	-6	0.9%	-0.1	-8
Cc1cc(C(=O)NCc2ccc(F)cc2)n(-c2ccccc2)n1	7%	-1.1	1.7%	.	-0.4%	.	-10
COc1cccc(OC)c1C(=O)Nc1cccnc1	8%	0.7	-2.0%	-4	1.8%	0.0	-8
Cc1c(-c2nc(-c3ccncc3)no2)cccc1[N+](=O)[O-]	8%	5.4	0.1%	-4	-3.8%	1.1	9
CCOc1ccc(CN(C)C(=O)CCl)cc1	7%	4.0	-2.1%	2	0.6%	-0.9	-13
CCC(C(=O)NCC1CCCO1)n1nc(C)c2sc3ccccc3c2c1=O (centres undefined)	12%	.	0.1%	6	4.5%	-1.4	0
OC(c1ccc(Cl)c(Cl)c1)c1ncc(-c2ccccc2Cl)[nH]1 (centres undefined)	.	.	20%	.	-0.9%	-0.8	.
Cc1cnc(C(=O)N2CCc3c([nH]c4ccccc34)C2c2ccc(F)cc2)cn1 (centres undefined)	-1%	0.0	0.2%	-14	0.8%	0.2	8
COc1ccc(/C=C2\SC(=S)N(CCC(=O)NCCc3ccc(O)cc3)C2=O)cc1	13%	4.2	1.1%	-1	1.8%	-0.5	9
CCS(=O)(=O)N1CCN(c2ccnc3cc(Cl)ccc23)CC1	-18%	3.1	-0.6%	9	-1.2%	0.0	6
O=C(NCCNS(=O)(=O)c1ccccc1)c1cc(OCC(F)(F)F)ccc1OCC(F)(F)F	9%	-0.6	0.0%	26	-8.7%	2.4	-15
O=C1CSC(c2cccc(O)c2)N1Cc1ccccc1 (centres undefined)	4%	-0.7	-1.3%	-8	0.5%	2.2	22
CN(C(=O)c1ccc(NC(=O)Cc2ccc(NC(=O)C3CCCN(C(=O)C4CCC4)C3)cc2)cc1)C1CC1 (centres undefined)	.	.	1.9%	4	-1.8%	-0.6	-3
Cc1cc(C)cc(NC(=O)NCCn2nnc3cc(S(=O)(=O)N(C)C)ccc32)c1	.	.	-0.4%	-7	-1.8%	-0.1	.
COc1cc(-c2nnc(SCc3cc(=O)oc4cc(O)c(O)cc34)o2)cc(OC)c1OC	-11%	2.3	0.3%[38.3 µM]	4	-1.2%	0.5	2

The listing continues:
SMILES	Sfp inh	Menin MLL FP FL	PINK1 modulator	TRPML1 inh	ClpP mod	TRPML1 agonist	TRPV1 potentiator
O=C(CC1C(=O)NCCN1Cc1ccc(Cl)c(F)c1)NCCc1cccnc1 (centres undefined)	0%	-14	-1.0%	-13	.	0.5	-5
COc1ccc(NC(=O)CCN2C(=O)c3ccccc3S2(=O)=O)cc1	2%	0.4	0.0%[38.3 µM]	2	1.0%	-0.7	8
O=C(CN1CCN(C2CCS(=O)(=O)C2)CC1)N1N=C(c2ccc(Cl)cc2)CC1c1ccco1 (centres undefined)	.	.	1.8%	18	-13%	0.2	5
CC(C)=CCC[C@H](C)C[C@@H]1Cc2[nH][nH]c(=O)c2[C@H](c2ccc(F)cc2)O1	.	.	16%	.	2.6%	-0.5	.
CC(C)Cc1ccc(/C(=N/O)C(=O)O)s1	-22%	4.6	0.9%	-13	-3.9%	0.0	-8
O=C(Nc1nnc(SCCN2CCOCC2)s1)C1CC(=O)N(c2ccccc2)C1 (centres undefined)	7%	-4.0	-1.7%	-6	-1.8%	-0.4	-1
COCCNC(=O)C(OC(=O)c1ccco1)c1ccccc1OC (centres undefined)	2%	-9.2	1.0%	11	4.2%	-0.5	21
CCc1nnc(NC(=O)c2ccc(S(=O)(=O)N3CCCCCC3)cc2)s1	1%	2.8	0.6%	3	-5.0%	0.1	4
